Source: PubChem BioAssay (National Center for Advancing Translational Sciences (NCATS))
Lassa entry inh: inhibitors of Lassa virus binding or cell entry | Lassa virus pseudotype entry inhibition, cell reporter; control for the full effect not named in the record | Potency, µM (series often up to 37.9 µM), without a hit: top-dose activity change, negative = inhibition, hits mostly inhibitors | hit rate 1.2% among 300,000; active means well fitted inhibition curve with a large enough effect; inconclusive means small, poorly fitted or top-dose-only effect, or effect the other way; inactive means flat fitted curve, though single readings scatter; tested in HEK293 cells; further: on the % scale 0 is the no-effect control and ±100 the full control effect; nearly all actives have a fitted effect of over 50% in size; luciferase read-out
RE007 growth inh: less growth of the S. pombe RE007 Vpr strain; S. pombe RE007 Vpr strain, BacTiter-Glo ATP luminescence, 24 h; control for the full effect not named in the record; Potency, µM (titrated, usually from 92.2 µM), for the others: at the top dose activity change, negative = less growth; hit rate 0.21% among 360,000; AID 651644; active = well fitted falling curve with a large enough effect; inconclusive = small, poorly fitted or top-dose-only effect; inactive = no such curve, though single readings can be large or run the other way;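 further: on the % scale 0 is the no-effect control and ±100 the full control effect; nearly all actives have a fitted effect of over 50% in size; the assay follows cell death caused by Vpr and the record does not say whether a fall means rescue or toxicity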
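Fission yeast strain RE007, carrying one chromosomally integrated HIV-1 vpr copy, was seeded at OD 0.01 in PMG+AL medium with 23 nL pinned compound. After 24 h at 30 °C and 99% humidity, viability was read by BacTiter-Glo luminescence.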
NS1 inh: influenza NS1 inhibition | Potency, µM (titrated, usually from 46.1 µM), for inactives: top-dose activity, positive = more growth | hit rate 0.4% among 270,000 | AID 2326 | S. cerevisiae slowed by influenza A NS1, growth recovery by OD600; further: actives are rising curves; nearly all actives have a fitted effect of over 50% in size
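Compounds were scored for reversing the slow growth caused by influenza A NS1 in S. cerevisiae, measured by optical density at 600 nm. Assay medium contained 2% galactose at pH 6.0; NS1-free yeast of the same strain were the positive control.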
Cruzain noTriton: blocks cruzain activity in detergent-free assay | AID 1476 | P25779 | hit rate 2.3% among 200,000 | Potency, µM, for the others: max response, negative = inhibition, actives largely listed as inhibitors | purified cruzain, Z-FR-AMC fluorescence, no detergent; active means well fitted curve in the direction sought with a large enough effect; inconclusive means small, poorly fitted or top-dose-only effect, or another doubt; inactive means no such curve, though single readings can be large; an effect the other way counts as inactive or inconclusive;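 further: plate controls were enzyme without inhibitor for no effect and buffer without enzyme for full effect; nearly all actives have a fitted effect of over 40% in size; top concentration of the series not given in the record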
Target sequence (P25779 123-467 limits assumed): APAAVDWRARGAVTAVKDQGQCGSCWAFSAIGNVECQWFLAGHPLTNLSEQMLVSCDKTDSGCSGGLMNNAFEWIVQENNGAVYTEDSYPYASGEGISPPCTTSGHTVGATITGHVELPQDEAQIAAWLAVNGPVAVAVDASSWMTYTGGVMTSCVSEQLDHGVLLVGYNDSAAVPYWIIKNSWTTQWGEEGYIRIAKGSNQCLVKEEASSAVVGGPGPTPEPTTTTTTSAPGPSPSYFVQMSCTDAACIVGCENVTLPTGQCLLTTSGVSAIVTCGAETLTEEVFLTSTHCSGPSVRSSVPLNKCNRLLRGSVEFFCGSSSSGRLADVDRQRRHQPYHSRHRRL
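Detergent-free condition (0.00005% Triton X-100) in acetate buffer pH 5.5 with DTT. 1.5 nM enzyme and compound were pre-mixed 15 min, then 2 uM Z-FR-AMC substrate added; reaction progress from fluorescence change between first and third reads (60 s).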
2A StopGo: FMDV 2A StopGo reporter, luciferase signal | human cells with a luciferase reporter of 2A StopGo recoding; control for the full effect not named in the record | Potency, µM (top dose mostly 57.9 µM), inactives show at the highest dose signal change, negative = less light | hit rate 1.2% among 410,000; active = well fitted falling curve with a large enough effect; inconclusive = small, poorly fitted or top-dose-only effect; inactive = no such curve, though single readings can be large or run the other way; tested in HEK293T cells; further: on the % scale 0 is the no-effect control and ±100 the full control effect; nearly all actives have a fitted effect of over 45% in size; luciferase light after 4 h
Cruzain inh Det: inhibitors of Trypanosoma cruzi cruzain with detergent; Potency, µM, without a hit: max response, negative = inhibition, hits mostly inhibitors; hit rate 0.43% among 200,000; P25779; purified cruzain, Z-FR-AMC fluorescence, 0.01% Triton; active means well fitted curve in the direction sought with a large enough effect; inconclusive means small, poorly fitted or top-dose-only effect, or another doubt; inactive means no such curve, though single readings can be large; an effect the other way counts as inactive or inconclusive;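 further: plate controls were neutral wells for no effect and buffer without enzyme for full effect; nearly all actives have a fitted effect of over 40% in size; top concentration of the series not given in the record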
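In this qHTS format, compounds are incubated with 1.5 nM cruzain for 15 min at room temperature before 2 uM Z-FR-AMC is added. Release of AMC is followed at 360/450 nm, and progress is taken as the 60 s fluorescence difference.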
Marburg entry inh: Marburg virus entry inhibition | Marburg virus pseudotyped entry inhibition, cell reporter; control for the full effect not named in the record; about a third of the inactives were read at about 46 µM | Potency, µM (top dose mostly 37.8 µM), for inactives: at the top dose activity change, negative = inhibition, most hits filed as inhibitors | hit rate 1.8% among 300,000 | AID 540276; active = well fitted inhibition curve with a large enough effect; inconclusive = small, poorly fitted or top-dose-only effect, or effect the other way; inactive = flat fitted curve, though single readings scatter; tested in HEK293 cells; about a fifth of its hits are not listed in these tables; further: on the % scale 0 is the no-effect control and ±100 the full control effect; luciferase read-out
SARS PLpro yeast: blocks SARS-CoV papain-like protease in a yeast assay; S. cerevisiae expressing SARS-CoV PLpro, growth rescue; control for the full effect not named in the record; Potency, µM (titrated, usually from 32.9 µM), without a hit: at the top dose activity, positive = growth rescue; hit rate 0.19% among 330,000; AID 485353; further: 0% is about no effect; nearly all actives have a fitted effect of over 55% in size; growth read by luminescence after 48 h
The depositor's hits bear a star; ? = inconclusive; / = not tested or not shown; & = joins results of further samples; [ ] = dose if it differs, or a comment. Unless noted, the call rests on the fitted dose curve; in most records, active means well fitted rising curve with a large enough effect; inconclusive means small, poorly fitted or top-dose-only effect; inactive means no such curve, though single readings can be large or run the other way. Potency means the concentration at half of the fitted maximal effect.

SMILES | Lassa entry inh | RE007 growth inh | NS1 inh | Cruzain noTriton | 2A StopGo | Cruzain inh Det | Marburg entry inh | SARS PLpro yeast
O=C1COCCOCCOCC(=O)NCCN1 | -2%[46.1 µM] | -1% | 9% | / | -6% | / | -6% | -2%
COC(=O)[C@H](CCSC)NC(=O)Nc1ccc(OC)c(Cl)c1 | 2% | 11% | 2% | 8% | -15% | -1.0% | 4% | 5%
Cc1cccc(OCC(=O)O/N=C(\N)c2ccncc2)c1 | 13%[46.1 µM] | 3% | -6% | / | 13% | / | 2%[46.1 µM] | -4%
S=C(NCCc1cnc[nH]1)NC1CCCC1 | -12% | 5% | -4% | / | -12% | / | 5% | 1%
COc1ccccc1N1CCN(S(=O)(=O)CCNC(=O)c2cc(=O)c3ccccc3o2)CC1 | 19%[46.1 µM] | -8% | -18% | -8% | ? | -0.4% | / | 1%
COc1ccc(-c2nn(-c3ccccc3F)cc2CNCCn2nc(C)cc2C)cc1 | / | -10% | 0% | / | ? | / | / | 0%
Cc1ccc(NC(=O)COc2ccccc2)cc1S(=O)(=O)N1CCCCCC1 | ? | 1% | / | / | 28µM* | / | ? | 0%
CCCCN1Cc2c(nc3cc(-c4ccccc4)[nH]n3c2=O)C1=O | 8% | 3% | 1% | / | 20% | / | -7%[46.1 µM] | 1%
O=C(N/N=C/c1c[nH]c2ccccc12)c1ccc2c(c1)OCCO2 | ? | 4% | 1% | / | -8% | / | ? | -1%
Cc1ccc(S(=O)(=O)c2nnn3c2nc(Nc2ccc(C(C)C)cc2)c2sccc23)cc1C | ? | / | / | -4% | -25% | -1.5% | / | /
COc1ccc(Cl)cc1C(=O)NNC(=O)c1ccc(F)c(S(=O)(=O)N2CCOCC2)c1 | -17% | -5% | / | / | -11% | / | ? | -4%
C=CCSc1nc2c(c(=N)n1CC=C)C1CCCC1S2 (centres undefined) | ? | -9% | -40% | -9% | -4% | 6.9% | ? | /
O=C(O)CN1C(=O)C2C3C=CC(C2C1=O)C1C(=O)N(CC(=O)O)C(=O)C31 (centres undefined) | / | 3% | -17% | / | -12% | / | / | -1%
CCN(C(=O)COC(=O)c1ccc(Cl)c(S(=O)(=O)N2CCCCC2)c1)C1CCS(=O)(=O)C1 (centres undefined) | ? | 10% | / | / | ? | / | -3% | -3%
O=C(OCC(=O)N1CCN(C(=O)c2ccco2)CC1)c1ccccc1OCc1ccccc1 | 1% | 4% | -70% | ? | 0% | 1.2% | -1%&-1% | 7%
Cc1ccc(OCC(=O)Nc2ccon2)c([N+](=O)[O-])c1 | / | -17% | -2% | / | 39%[activator] | / | / | 0%
Cc1cc(C)n(-c2nnc(C)n2/N=C/c2ccccc2OCc2ccccc2Cl)n1 | ? | -9% | -55% | ? | ? | -8.1% | -11% | -18%
O=C(Nc1ccncc1)C1CCCN(S(=O)(=O)c2cccc3cccnc23)C1 (centres undefined) | / | -11% | -2% | 4% | ? | 4.9% | 1% | -4%
O=C(CN1C(=O)NC2(CCCc3ccccc32)C1=O)Nc1cccc(S(=O)(=O)N2CCCCC2)c1 (centres undefined) | -13% | -6% | ? | -29% | -9% | -4.9% | ? | 23%
COc1cccc(CNC(=O)CCCN2C(=O)C(c3ccccc3)Oc3cccnc32)c1OC (centres undefined) | / | 5% | -9% | / | -3% | / | / | 6%
COc1cc(C(C)=O)ccc1OCC(O)Cn1nc(C)c(Br)c1C (centres undefined) | ? | -4% | -1% | / | -20% | / | -21%[46.1 µM] | -7%
CCOC(=O)N/N=C\c1ccc([N+](=O)[O-])s1 | -16% | ? | / | / | -5% | / | ? | -23%
Cc1csc(N(C)C(=O)CSc2nnc(COc3cccc4ccccc34)o2)n1 | 0% | -11% | -1% | ? | / | -0.9% | -12% | -2%
Cc1cc(=O)n2nc(N3CCC(C(=O)NCc4ccco4)CC3)sc2n1 | ? | -16% | -2% | / | -16% | / | -9%[46.1 µM] | 2%
CC/C(=N\Nc1ccc([N+](=O)[O-])cc1)c1ccccc1 | ? | -2% | / | / | -12% | / | -10% | -1%
CC(=O)n1c(-c2ccccc2)c(CO)c2ccccc21 | / | -8% | -61% | / | -27% | / | / | -17%
CCN(CC)CCNC(=O)c1[nH]c2ccc(OCc3ccccc3)cc2c1C | ? | 17% | / | / | -14% | / | ? | 0%
O/C(=C\c1nc2ccccc2nc1/C=C(\O)c1ccccc1)c1ccccc1 | 6% | -4% | / | / | ? | / | 2% | -2%
COc1cccc(NC(=O)C2CC(=O)N(c3ccc(Br)cc3)C2)c1 (centres undefined) | -2%[46.1 µM] | / | / | -8% | -13% | -10% | -9%[46.1 µM] | /
CCC(C(=O)NC(C)CCc1ccccc1)n1nc(C)n2c(cc3occc32)c1=O (centres undefined) | -7% | 12% | -8% | -6% | -18% | -1.1% | -23% | 5%
COc1ccc(S(=O)(=O)N2CCOC23CCN(C(=O)c2ccc(Cl)cc2Cl)CC3)cc1 | / | 2% | -8% | / | -2% | / | / | -5%
Cc1cccc(N2CCN(C(=O)c3ccc4nc(-c5ccco5)c(-c5ccco5)nc4c3)CC2C)c1 (centres undefined) | ? | -6% | 15% | 2% | 25µM* | -2.4% | ? | -9%
COc1ccc([N+](=O)[O-])cc1NC(=O)C(C)OC(=O)C1c2ccccc2Oc2ccccc21 (centres undefined) | 0% | 4% | 8% | ? | ? | -6.0% | ? | -7%
C=CCn1c2ccccc2c2nnc(SCC(=O)Nc3cc(C)on3)nc21 | -17% | -11% | 1% | -9% | -24% | -0.9% | 14% | -5%
N#Cc1ccc(Oc2nc(Nc3ccc(F)cc3)nc(N3CCCC3)n2)cc1 | 1% | 3% | 4% | -4% | ? | -16% | -6% | 15%
CCCC(=O)Oc1c(Sc2ccc(Cl)cc2)c(C)nn1-c1ccccc1 | 0%[46.1 µM] | / | / | 2% | -29% | -3.6% | 14%[46.1 µM] | /
CC(=O)Nc1cccc(OCC(=O)NS(=O)(=O)c2ccc(C)cc2)c1 | 0% | -9% | -11% | -26% | -17% | 4.6% | ? | -7%
CC(C)CNC(=O)C(=O)Nc1c2c(nn1-c1ccc(Cl)cc1)CSC2 | 9%[46.1 µM] | / | / | ? | 2% | 1.3% | / | /
CN(Cc1ccccc1)S(=O)(=O)c1ccc(OCC(=O)N2CCC(C(N)=O)CC2)cc1 | / | 24% | -5% | / | -8% | / | / | 2%
NC(=O)c1ccc(NC(=O)COC(=O)c2cc3c(s2)CCC3)cc1 | 8% | -10% | / | / | -15% | / | 21%&21% | 2%
COc1ccccc1NC(=S)NCc1ccc(F)cc1 | -16% | 4% | -4% | / | 33%[activator] | / | 9% | 22%
CCc1ccc(NC(=O)Cn2nc(SC)c(S(=O)(=O)c3ccc(OC)cc3)c2N)cc1 | 26%[46.1 µM] | / | / | -8% | -24% | 0.2% | / | /
CCCn1ncc(CN2CCCC(C(=O)c3cccc(OC)c3)C2)c1C (centres undefined) | 15% | -11% | 2% | / | -12% | / | 6%[46.1 µM] | 0%
CCC(=O)N1Cc2ccccc2-c2ccccc2C1=O | -5% | -12% | -45% | 2% | -18% | -5.9% | 5% | -2%
CCSc1nnc(SCC(=O)c2c(N)n(C)c(=O)n(C)c2=O)s1 | 15% | 18% | / | / | -30% | / | 0%[46.1 µM] | -3%
Cc1cc(C)n2nc(C(=O)Nc3ccccc3N3CCOCC3)nc2n1 | / | / | -9% | -1% | / | 2.1% | -2% | -1%
Cc1c(O)c(CN2CCCC2)cc2c3c(c(=O)oc12)CCC3 | 12% | -4% | 11% | ? | 4% | -20% | -12% | -12%
